# Mtb H37Rv – Mycobacterium tuberculosis H37Rv growth inhibition, putative kinase inhibitor library, confirmatory dose response (AID 2842); M. tuberculosis H37Rv growth inhibition; higher % means a stronger effect; some inactives read as strong as hits; inhibition, % at 10 µg/mL; hits with a dose series show IC90 in µg/mL; 24,000 tested, 5.2% active;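 active = confirmed in a dose series; inconclusive = mostly over 85% at the one dose but not retested; inactive = below 85% or not confirmed; about a fifth of its hits are not listed in these tables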;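 also: bacteria incubated one week before Alamar blue readout; 0% = bacteria only wells and 100% = bacteria with high antibiotic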
# Active calls of the source: *; ? = inconclusive.
CSc1ccc(C(Nc2ccccn2)c2c(C)[nH]c3ccccc23)cc1 (stereo not drawn)
  Mtb H37Rv = -6%

O=[N+]([O-])c1cc(S(=O)(=O)NC2CCS(=O)(=O)C2)ccc1N1CCCC1 (stereo not drawn)
  Mtb H37Rv = -7%

COc1ccc2c(c1)c1nnc(-c3ccc(C)cc3)c-1cn2Cc1ccccc1OC
  Mtb H37Rv = 4.2µg/mL*

O=C(CCn1cnc2ccccc21)N/N=C/c1cccs1
  Mtb H37Rv = 0%

COc1ccc(OC)c(-c2nnc(NC(=O)Cc3ccc(OC)c(OC)c3)s2)c1
  Mtb H37Rv = 4%

COc1cc(/C=C(\C#N)C(=O)Nc2ccccc2O)ccc1O
  Mtb H37Rv = 1%

O=C(NNc1ncnc2c1cnn2-c1ccccc1)c1ccccc1Cl
  Mtb H37Rv = -7%

CCCSc1nc(N)c(NC(=O)c2ccc(OC)c(OC)c2)c(=O)[nH]1
  Mtb H37Rv = -4%

O=C(Nc1nnc(-c2ccc3c(c2)CCCC3)o1)c1ccc([N+](=O)[O-])o1
  Mtb H37Rv = 11µg/mL*

Cc1ccc(C)c(NS(=O)(=O)c2cc3c4c(c2)CCC(=O)N4CCC3)c1
  Mtb H37Rv = 1%

# 5 entries picked at random from those above:
O=C(NNc1ncnc2c1cnn2-c1ccccc1)c1ccccc1Cl
  Mtb H37Rv = -7%

COc1cc(/C=C(\C#N)C(=O)Nc2ccccc2O)ccc1O
  Mtb H37Rv = 1%

Cc1ccc(C)c(NS(=O)(=O)c2cc3c4c(c2)CCC(=O)N4CCC3)c1
  Mtb H37Rv = 1%

COc1ccc2c(c1)c1nnc(-c3ccc(C)cc3)c-1cn2Cc1ccccc1OC
  Mtb H37Rv = 4.2µg/mL*

O=C(Nc1nnc(-c2ccc3c(c2)CCCC3)o1)c1ccc([N+](=O)[O-])o1
  Mtb H37Rv = 11µg/mL*

# Later entries
Cc1cccc(Cn2c(SCc3ccc(F)cc3)nc3c2c(=O)[nH]c(=O)n3C)c1
  Mtb H37Rv = 8%

CC(=O)c1ccc(NC(=O)CSc2nc3[nH]ncc3c(=O)[nH]2)cc1
  Mtb H37Rv = 1%

CCOC(=O)CNC(=O)CSc1ncnc2c1nnn2-c1ccc(OC)cc1
  Mtb H37Rv = 6.8µg/mL*

COc1ccc2nc(NNC(=O)c3ccc(S(=O)(=O)N4CCc5ccccc5C4)cc3)sc2c1
  Mtb H37Rv = 0%

Cc1ccc2c(c1)c1nnc(-c3ccc4c(c3)OCO4)c-1cn2Cc1cccc(F)c1
  Mtb H37Rv = 3.4µg/mL*

CC1CCc2c(sc(NC(=O)CN3C(=O)c4ccccc4C3=O)c2C#N)C1 (stereo not drawn)
  Mtb H37Rv = -1%

COc1ccc(-c2nc(SCC(N)=O)c3c(=O)n(C)c(=O)n(C)c3n2)cc1
  Mtb H37Rv = 4%

CCOC(=O)c1c(NC(=O)CSc2nc(N)cc(=O)[nH]2)sc(C)c1C
  Mtb H37Rv = -4%

CCOC(=O)C(CC)Sc1nc(N)c(NC(=O)c2ccco2)c(=O)[nH]1 (stereo not drawn)
  Mtb H37Rv = 4%

Cc1cc(=O)oc2cc(OCC(=O)Nc3ccccc3C(F)(F)F)ccc12
  Mtb H37Rv = -6%

# Laid out differently: 5 of the compounds above.
Molecule	Mtb H37Rv
COc1ccc(-c2nc(SCC(N)=O)c3c(=O)n(C)c(=O)n(C)c3n2)cc1	4%
Cc1cc(=O)oc2cc(OCC(=O)Nc3ccccc3C(F)(F)F)ccc12	-6%
Cc1ccc2c(c1)c1nnc(-c3ccc4c(c3)OCO4)c-1cn2Cc1cccc(F)c1	3.4µg/mL*
CC1CCc2c(sc(NC(=O)CN3C(=O)c4ccccc4C3=O)c2C#N)C1 (stereo not drawn)	-1%
CCOC(=O)c1c(NC(=O)CSc2nc(N)cc(=O)[nH]2)sc(C)c1C	-4%

# Next records.
O=C(Nc1nnc(-c2ccc(Cl)cc2Cl)s1)c1cc(Cl)ccc1Cl
  Mtb H37Rv = 4%

Brc1c(CSc2nncn2-c2ccccc2)nc2ncccn12
  Mtb H37Rv = -9%

O=C(CSc1nc2[nH]ncc2c(=O)[nH]1)NC1CCCC1
  Mtb H37Rv = -15%

Cc1ccc(Nc2ncnc3nc[nH]c23)cc1
  Mtb H37Rv = 7%

COc1cc(/C=N/NC(=O)COc2ccccc2)ccc1O
  Mtb H37Rv = 53%

O=C(O)/C=C/c1ccc2c(-c3ccccc3)onc2c1
  Mtb H37Rv = -4%

O=C(Nc1nnc(-c2ccc(Cl)cc2)s1)c1ccccc1F
  Mtb H37Rv = 15%

COc1ccc(OC)c(-n2c(SC(C(C)=O)C(C)=O)nnc2-c2c[nH]c3ccccc23)c1
  Mtb H37Rv = 1%

CCOc1cccc2sc(Nc3nc4ccc5sc(C)nc5c4s3)nc12
  Mtb H37Rv = 7%

CCOC(=O)c1nn(-c2ccccc2)c(=O)c2c(NC(=O)c3ccc(S(=O)(=O)N(C)C)cc3)scc12
  Mtb H37Rv = -13%

CN1CCc2c(sc(NC(=O)c3ccc(C#N)cc3)c2C(N)=O)C1
  Mtb H37Rv = -5%

CC(C)CCSc1nc2c(c(=O)[nH]c(=O)n2C)n1C(C)C
  Mtb H37Rv = 16%

CCOC(=O)Cn1c(=NC(=O)c2ccc3c(c2)OCCO3)sc2cc(NC(C)=O)ccc21
  Mtb H37Rv = 2%

CCOC(=O)c1cc(NC(=O)Nc2ccc(Cl)c(Cl)c2)c(C)nc1C
  Mtb H37Rv = 12µg/mL*

COc1cc(OC)cc(C(=O)NNc2nc3c(C)cc(C)cc3s2)c1
  Mtb H37Rv = 80%

Cc1ccc(CSc2nc(N)c(NC(=O)c3ccco3)c(=O)[nH]2)cc1
  Mtb H37Rv = 5%

Cc1ccc(C(=O)Nc2sc3c(c2-c2nc4ccccc4s2)CCCC3)cc1
  Mtb H37Rv = 5%

CCOC(=O)c1nn(-c2ccc(C)cc2)c(=O)c2c(NC(=O)/C=C/c3cc(OC)c(OC)c(OC)c3)scc12
  Mtb H37Rv = -2%

CCOC(=O)c1cnn(-c2ccc(C(F)(F)F)cn2)c1N
  Mtb H37Rv = 2%

Cc1ccc(C(=O)O)c(=O)[nH]1
  Mtb H37Rv = 7%

CC1CCN(S(=O)(=O)c2ccc(C(=O)Nc3sccc3C(N)=O)cc2)CC1
  Mtb H37Rv = 50%

CCOC(=O)c1nn(-c2ccc(Cl)cc2)c(=O)c2c(NC(=O)C(C)Cl)scc12 (stereo not drawn)
  Mtb H37Rv = 2%

Cc1c(CCC(=O)O)c(C)n2c(nc3ccccc32)c1C#N
  Mtb H37Rv = -1%

O=C(Nc1ncc(Cc2cccc(C(F)(F)F)c2)s1)c1cccs1
  Mtb H37Rv = 2.9µg/mL*

COC(=O)c1ccc(CSc2nc(-c3ccc(F)cc3)nc3c2c(=O)n(C)c(=O)n3C)o1
  Mtb H37Rv = -6%

O=C(CSc1ccc2nnc(-c3ccccn3)n2n1)Nc1nccs1
  Mtb H37Rv = -9%

Cc1cc(NC2CCCCC2)n2c(nc3ccccc32)c1C#N
  Mtb H37Rv = -8%

COc1ccc(S(=O)(=O)c2cn(Cc3cccc(Cl)c3)c3ccc(OC)cc3c2=O)cc1
  Mtb H37Rv = 2%

Cn1c(=O)c2c(SCC(=O)Nc3nc4ccccc4s3)nc(-c3ccc(F)cc3)nc2n(C)c1=O
  Mtb H37Rv = 15%

CC1(C)Cc2c(sc(NC(=O)c3coc4ccccc4c3=O)c2C(N)=O)C(C)(C)N1
  Mtb H37Rv = 12%

CC(Cl)C(=O)Nc1nnc(-c2ccccc2)s1 (stereo not drawn)
  Mtb H37Rv = 4%

Cc1ccc(N(C2CCS(=O)(=O)C2)S(C)(=O)=O)cc1C (stereo not drawn)
  Mtb H37Rv = 1%

CCc1ccc(NC(=O)CSc2ccc3nnc(-c4cccc(F)c4)n3n2)cc1
  Mtb H37Rv = 7%

Cc1ccc(OCC(O)Cn2c(N(C)Cc3ccccc3)nc3c2c(=O)[nH]c(=O)n3C)cc1C (stereo not drawn)
  Mtb H37Rv = -1%

CCOC(=O)c1oc2ccccc2c1NC(=O)c1ccc(Cl)s1
  Mtb H37Rv = -3%

CC(=O)N1CCc2c(sc(NC(=O)c3cccc(C(F)(F)F)c3)c2C#N)C1
  Mtb H37Rv = 79%

O=C(Nc1nnc(C2=COCCO2)o1)c1ccc(F)cc1
  Mtb H37Rv = 2.2µg/mL*

COc1ccc(C(=O)Nc2c(N)nc(SCCO)[nH]c2=O)cc1OC
  Mtb H37Rv = -6%

CN(C)CCNC(=O)C(=O)Nc1cc2c3c(c1)CCC(=O)N3CCC2
  Mtb H37Rv = -9%

Clc1ccc2nc(N3CCCCC3)sc2c1
  Mtb H37Rv = 3%

CN(C)C1NC(=O)c2cc(-c3ccccc3)sc2N1 (stereo not drawn)
  Mtb H37Rv = 6%

CS(=O)(=O)Nc1ccc(C2=NN(C(=O)C3CCCCC3)C(c3cccs3)C2)cc1 (stereo not drawn)
  Mtb H37Rv = ?

CCOC(=O)c1nn(-c2ccc(OC)cc2)c(=O)c2c(NC(=O)C3CC3)scc12
  Mtb H37Rv = 3%

O=C(CSc1ccc2nnc(CCNC(=O)c3ccc(F)cc3)n2n1)NCc1ccccc1
  Mtb H37Rv = -8%

CCCc1cc(=O)[nH]c2nnc(SCC(=O)Nc3nnc(CC)s3)n12
  Mtb H37Rv = -10%

Oc1c(C(c2ccco2)N2CCC3(CC2)OCCO3)sc2ncnn12 (stereo not drawn)
  Mtb H37Rv = 7%

O=C1NC2=C(C(=O)N(CC3CCCO3)C2)C(c2ccccc2)N1 (stereo not drawn)
  Mtb H37Rv = -17%

CCCCN(Cc1ccccc1)c1ncnc(N)c1[N+](=O)[O-]
  Mtb H37Rv = 13%

Cn1c(-c2cc3ccc(OC(=O)c4ccco4)cc3oc2=O)nc2ccccc21
  Mtb H37Rv = -1%

Cc1nnc(NC(=O)c2ccccc2C(F)(F)F)s1
  Mtb H37Rv = 2%

# Taken from above.
# Under Mtb H37Rv, CN(C)C1NC(=O)c2cc(-c3ccccc3)sc2N1 (stereo not drawn) has 6%
# Under Mtb H37Rv, Cn1c(-c2cc3ccc(OC(=O)c4ccco4)cc3oc2=O)nc2ccccc21 has -1%
# Under Mtb H37Rv, O=C1NC2=C(C(=O)N(CC3CCCO3)C2)C(c2ccccc2)N1 (stereo not drawn) has -17%
# Under Mtb H37Rv, Oc1c(C(c2ccco2)N2CCC3(CC2)OCCO3)sc2ncnn12 (stereo not drawn) has 7%
# Under Mtb H37Rv, CCOC(=O)c1nn(-c2ccc(OC)cc2)c(=O)c2c(NC(=O)C3CC3)scc12 has 3%

# (continued)
Cc1cccc(C(=O)Nc2c(C(=O)Nc3ccc([N+](=O)[O-])cc3)oc3ccccc23)c1
  Mtb H37Rv = 2%

CC(=O)c1ccc(C(=O)Nc2nc3ccc(Br)cc3s2)cc1
  Mtb H37Rv = 1%

C=CCn1c(N/N=C/c2ccc(C)cc2)nc2c1c(=O)[nH]c(=O)n2C
  Mtb H37Rv = -1%

NC(=O)c1c(NC(=O)/C=C/c2ccco2)sc2c1CCCC2
  Mtb H37Rv = 46%

Cc1ccccc1-c1nnc(NC(=O)Cc2cccs2)s1
  Mtb H37Rv = 1%

Cc1c(C)n2c(SCC(=O)Nc3ccc4c(c3)OCO4)nnc2[nH]c1=O
  Mtb H37Rv = -9%

N#C/C(=C\Nc1ccc2c(c1)OCCO2)C(=O)NCc1ccco1
  Mtb H37Rv = 4%

Cc1ccc(C(=O)Nc2c(N)nc(SCC(=O)Nc3ccccc3C)[nH]c2=O)cc1
  Mtb H37Rv = -12%

CC(=O)Oc1ccc2ccccc2c1/C=C/c1nc2ccccc2c(=O)[nH]1
  Mtb H37Rv = -1%

Fc1ccc(-c2nnc(Nc3nc4ccc(F)cc4s3)o2)cc1
  Mtb H37Rv = 12%

Cc1cc(OC(=O)CCC2CCCCC2)c([N+](=O)[O-])c(=O)[nH]1
  Mtb H37Rv = 2%

COc1ccc(N2CC(NC(=O)Nc3ccccc3Cl)CC2=O)cc1 (stereo not drawn)
  Mtb H37Rv = 14%

O=C(CSc1ccc2nnc(-c3ccncc3)n2n1)Nc1ccc([N+](=O)[O-])cc1
  Mtb H37Rv = -1%

CCOCCn1c(SC)nc2c1c(=O)[nH]c(=O)n2C
  Mtb H37Rv = 11%

O=C(NCCc1ccccc1)c1cnc2sccn2c1=O
  Mtb H37Rv = 5%

Nc1nc(O)c(C2=c3ccccc3=NC2=O)s1
  Mtb H37Rv = 7%

Cc1ccc(S(=O)(=O)Nc2ccc3c(c2)CC(=O)N3)cc1
  Mtb H37Rv = 4%

Cc1cnc(=O)[nH]c1SCc1ccc(Cl)cc1
  Mtb H37Rv = -12%

N#Cc1ccc(C(=O)Nc2sc3c(c2C(N)=O)CCCC3)cc1
  Mtb H37Rv = 5%

CCOC(=O)c1nn(-c2ccc(OC)cc2)c(=O)c2c(NC(=O)c3ccc(C)c(C)c3)scc12
  Mtb H37Rv = 5%

COc1cc(/C=C(\C#N)c2nc(-c3ccc(Cl)cc3Cl)cs2)ccc1OC(C)=O
  Mtb H37Rv = 29%

Nc1nnc(C(F)(F)F)s1
  Mtb H37Rv = -7%

NC(=O)C1CCN(c2ncnc(N)c2[N+](=O)[O-])CC1
  Mtb H37Rv = 2%

COc1ccc(-c2cc(C(=O)NN=Cc3ccc(O)cc3)[nH]n2)cc1
  Mtb H37Rv = 22%

CCOc1ncccc1C(=O)Nc1ccc(-c2ccc3nnc(C)n3n2)cc1
  Mtb H37Rv = 19%

CCc1cccc(CC)c1NC(=O)c1cncc(Br)c1
  Mtb H37Rv = -3%

O=C(CSc1ncnc2ccccc12)c1ccccc1
  Mtb H37Rv = 28%

CC(C)CCn1c(SCC(=O)Nc2ccccc2)nc2c1c(=O)[nH]c(=O)n2C
  Mtb H37Rv = 2%

Cc1ccc(S(=O)(=O)N(C)CCCC(=O)Nc2ccccc2I)cc1
  Mtb H37Rv = 10%

CNC(=O)c1c(NC(=O)CC2SC(=O)NC2=O)sc2c1CCCC2 (stereo not drawn)
  Mtb H37Rv = -4%

# Source: PubChem BioAssay (Southern Research Institute)

# An excerpt (hit frequency here may not be typical).
